D2 agonist = agonists of human D2 dopamine receptor (beta-arrestin). P14416. DiscoveRx PathHunter D2 beta-arrestin, luminescence, 90 min; 100% = 57 uM dopamine signal. activation, % (test concentration not listed). AID 624465. 360,000 tested, 0.084% active; in the data active = activation above about 40%; inconclusive = about 15% to 40%; inactive = below about 15%; also: compound concentration not given in the record; the text of the record calls up to 30% inactive
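Agonist mode: compounds alone added to overnight-plated D2 PathHunter cells for 90 min at 37 C, with 57 uM final dopamine (EC100) defining full response. Beta-arrestin recruitment detected by chemiluminescent reagent, read after 1 h at ambient temperature.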
CtBP-E1A inh = inhibitors of CtBP/E1A interaction; AlphaScreen GST-E1A/His-CtBP binding, 1536-well; active compounds read low; control for the full effect not named in the record; activity change, % (concentration not given with the values); 340,000 tested, 0.49% active; in the data active means activity change below about -65%; inconclusive means about -30% to -65%; inactive means above about -30%; also: % is scaled to controls: 0 for no effect and ±100 for the full control effect
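AlphaScreen with 125 nM GST-E1A and 125 nM His-CtBP (5X stocks) in Tris pH 8.0, 300 mM NaCl, BSA, Tween 20, TCEP. Compounds preincubated 2 h at 37 deg C, then glutathione donor/nickel acceptor beads added for 1 h at 37 deg C in dark.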
TRPML1 agonist = activates the human TRPML1 channel. Q9GZU1. TRPML1-expressing cells, Ca2+ dye fluorescence, FDSS; host cell line not named in the record; reference of the full effect not given here. activation, % (concentration not given with the values). 410,000 tested, 0.12% active; in the data active = activation above about 50%; inconclusive = about 30% to 50%; inactive = below about 30%; also: 0% is about no effect; the text of the record puts the active cut at 80%
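TRPML1-DL cells, Tet-induced overnight (~16 h, 37 degrees C), loaded 45-90 min at room temperature with Ca8 no-wash calcium dye plus quencher. FDSS fluorescence: 10 s baseline, compound pin-transfer, 110 s agonist read, then EC80 54-4 (4uM final) and 110 s antagonist read.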
PINK1 expr mod = modulators of PINK1 expression. AID 624263. PINK1 immunofluorescence, high-content cytometry, 24 h. 410,000 tested, 0.2% active. Potency, µM (doses to about 76.6 µM), for the others: top-dose activation (PINK1 increase), most hits filed as activators; active = well fitted activation curve with a large enough effect; inconclusive = small, poorly fitted or top-dose-only effect; inactive = flat fitted curve, though single readings scatter; cell line not stated here;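 also: potency is read from the fitted curve at half-maximal effect; % of control where 0% means no effect; nearly all actives have a fitted effect of over 65% in size; a mitochondrial uncoupler was the plate control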
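Stable cell line treated 24 h with compounds at 5 concentrations (CCCP controls), then fixed and immunostained for PINK1 plus nuclear and cell stains; PINK1 immunofluorescence quantified by laser-scanning microplate cytometry.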
Six1-Eya2 inh = inhibitors of human Six1/Eya2 interaction. Q15475+O00167. AlphaScreen GST-Six1/His-Eya2 binding, biochemical; active compounds read low; control for the full effect not named in the record. activity change, % (concentration not given with the values). 360,000 tested, 0.56% active; in the data active = activity change below about -65%; inconclusive = about -30% to -65%; inactive = above about -30%; also: % is scaled to controls: 0 for no effect and ±100 for the full control effect
Target sequence (O00167 whole entry, looked up): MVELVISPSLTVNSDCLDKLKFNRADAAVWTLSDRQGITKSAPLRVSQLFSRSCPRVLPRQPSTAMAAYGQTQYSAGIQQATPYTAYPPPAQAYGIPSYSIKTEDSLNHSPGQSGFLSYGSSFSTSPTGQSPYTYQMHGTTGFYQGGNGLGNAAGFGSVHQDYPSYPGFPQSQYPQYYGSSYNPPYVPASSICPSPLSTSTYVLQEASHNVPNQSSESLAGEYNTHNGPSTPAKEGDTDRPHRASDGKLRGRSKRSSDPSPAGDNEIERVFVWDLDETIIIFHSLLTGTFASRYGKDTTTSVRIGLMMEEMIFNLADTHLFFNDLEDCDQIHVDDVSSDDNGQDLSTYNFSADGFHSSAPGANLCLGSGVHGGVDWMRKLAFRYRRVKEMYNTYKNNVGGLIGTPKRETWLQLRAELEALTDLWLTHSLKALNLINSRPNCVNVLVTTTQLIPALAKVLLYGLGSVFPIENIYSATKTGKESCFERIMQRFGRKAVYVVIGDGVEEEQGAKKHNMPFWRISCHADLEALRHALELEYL
Target sequence (Q15475 whole entry, looked up): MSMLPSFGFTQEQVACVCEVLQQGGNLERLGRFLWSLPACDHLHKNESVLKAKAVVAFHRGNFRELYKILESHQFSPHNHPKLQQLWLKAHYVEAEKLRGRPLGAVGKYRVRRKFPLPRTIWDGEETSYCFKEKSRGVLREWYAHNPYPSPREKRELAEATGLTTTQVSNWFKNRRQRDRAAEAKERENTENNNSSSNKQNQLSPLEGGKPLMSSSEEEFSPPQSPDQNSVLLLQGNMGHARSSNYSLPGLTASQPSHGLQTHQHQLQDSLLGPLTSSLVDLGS
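GST-Six1 + His-Eya2 (5X stock: 250/500 nM); Tris pH 8.0, 300 mM NaCl, 0.05% BSA, 0.02% Tween 20; GSH donor/Ni acceptor beads; 1 h 37 °C dark; AlphaScreen readout.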
D2 PAM = positive allosteric modulators of human D2 dopamine receptor. 360,000 tested, 0.23% active. potentiation, % (test concentration not listed). P14416. AID 624464. DiscoveRx D2 beta-arrestin cells, luminescence, 90 min; 100% = 57 uM dopamine signal; active = potentiation of 50% or more; inconclusive = 30% to 50%; inactive = 30% or less;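 also: compound concentration not given in the record; tested on top of an EC20 dose of dopamine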
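PathHunter D2 cells, attached overnight at 37 deg C, received compound in DMSO plus dopamine at EC20 (50 nM final) for 90 min at 37 deg C. Beta-arrestin recruitment was read as luminescence after 1 h with detection reagent at ambient temperature.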
Active calls of the source: *; ? = inconclusive; nt = no result given; [ ] = remark or other dose.

SMILES	D2 agonist	CtBP-E1A inh	TRPML1 agonist	PINK1 expr mod	Six1-Eya2 inh	D2 PAM
O=C(Cn1nnc(-c2ccccc2-n2cnnn2)n1)NCc1ccccc1	0.5	58	-0.4	-2.2%[38.3 µM]	17	5
O=C(O)CC1(CC(=O)NCc2cc(F)cc3c2OCOC3)CCCCC1	-2.5	-1	0.0	-1.3%	4	-4
O=C(Nc1ccccc1SCC1CSc2nc3ccccc3c(=O)n21)c1ccccc1 (configuration not stated)	-1.8	-5	0.0	-1.0%	-6	-40
COC(=O)c1ccccc1NC(=O)CSc1[nH]c(=O)cc(C)c1C#N	-3.0	-24	2.1	-0.3%	0	1
C=CCN1C(=O)c2ccc(C(=O)N(C)CC(=O)Nc3ccccc3Br)cc2C1=O	0.7	3	0.0	8.2%	1	2
COc1cc(C2C(C#N)=C(N)Oc3cc(C)oc(=O)c32)ccc1OC(=O)N1CCOCC1 (configuration not stated)	-1.3	2	0.9	1.6%	4	-1
Cc1nc(N)[nH]c(=O)c1CC(=O)OCCCl	-4.6	7	-0.3	0.0%	5	-10
O=C(O)CCN1C(=O)c2ccc(NC(=O)CSc3ccc(Cl)cc3)cc2C1=O	-0.5	0	0.3	0.1%	0	-4
O=C(NC1CCCCCC1)c1ccc([N+](=O)[O-])s1	1.8	-6	-1.0	17%	-7	-5
COc1ccc(CCNC(=O)CSc2ccc(-c3ccco3)nn2)cc1OC	-2.5	6	-0.6	1.6%	0	-3
S=C(NNc1ccnc2cc(Cl)ccc12)Nc1ccc(Cl)cc1Cl	4.5	4	-0.6	8.9µM*	-9	-6
O=c1c2cc(Cl)ccc2[nH]c(=S)n1Cc1ccccn1	-11	-2	1.4	4.3%	-10	-23
CCOc1ccc(N(CC(=O)Nc2ccc(C)c(C)c2)S(=O)(=O)c2c(C)[nH]c(=O)[nH]c2=O)cc1	1.0	-16	-0.3	4.5%	-16	5
CCCCOC(=O)/C=C\C(=O)NC(N)=O	-0.2	-12	0.2	8.4%	5	-2
CCN(CC)S(=O)(=O)c1ccc(C)c(NC(=O)CSc2nc3ccc(C)cc3[nH]2)c1	-2.7	-13	1.6	?	-16	2
CCOCCCNC(=O)CS(=O)(=O)Cc1nc(-c2cccc(OC)c2)oc1C	-1.4	-1	-0.6	-4.9%[38.3 µM]	-2	-5
Cc1nc2ccc(Oc3ccccc3)cc2s1	0.4	4	-0.3	4.5%	19	-24
Cc1ncoc1C(=O)NC1CC(C)(C)Cc2c1cnn2-c1ccccc1 (configuration not stated)	-1.8	9	-0.2	-0.3%	0	-23
Cc1coc2c1c(C)cc1oc(=O)c(Cc3ccccc3)c(C)c12	-1.0	7	0.3	3.9%[38.3 µM]	3	11
CCOc1ccccc1NC(=O)CSc1nc2c(c(=O)n(C)c(=O)n2C)n1C	-1.8	0	-0.4	-0.2%	5	-1
O=C(CNC(=O)Cc1ccccc1)NCc1cccs1	-4.5	1	-0.3	1.0%	1	-8
Cc1ccc(CN(C(=O)c2ccco2)C2CCS(=O)(=O)C2)cc1 (configuration not stated)	-3.5	0	0.1	-0.2%	3	7
Cc1cccc(NC(=O)c2cc3ccccc3o2)c1	-2.1	17	1.6	-0.8%[38.3 µM]	5	-14
COc1cc(OC)nc(NC(=O)CSc2nc3ccccc3o2)n1	-0.7	-2	0.9	?	2	-13
COc1ccc(OC)c(NC(=O)Cn2cc(C(=O)c3ccco3)c3ccccc32)c1	2.5	-20	0.6	-1.4%[38.3 µM]	-23	-8
N/C(=N\OC(=O)c1ccc(Cl)cc1)c1cccnc1	?	-1	1.4	-1.1%	0	27
Cc1cc(NC(=O)CCC(=O)N(CCC(C)C)C(C(=O)NC2CCCC2)c2cccnc2)no1 (configuration not stated)	-1.5	3	0.2	-0.1%	6	-2
Cc1cc(NC(=O)COC(=O)c2c(C)noc2C)ccc1Br	-1.0	9	0.7	2.8%	5	-5
CCOC(=O)N1CCN(C(=O)c2cc3c(ccc4ccccc43)oc2=O)CC1	-2.9	5	-0.2	0.0%	-1	4
C=CCN1C(=O)S/C(=C/c2ccsc2)C1=O	-1.0	10	-0.3	6.8%[38.3 µM]	6	-9

As a working copy, eleven of the compounds above.
SMILES	D2 agonist	CtBP-E1A inh	TRPML1 agonist	PINK1 expr mod	Six1-Eya2 inh	D2 PAM
CCOc1ccccc1NC(=O)CSc1nc2c(c(=O)n(C)c(=O)n2C)n1C	-1.8	0	-0.4	-0.2%	5	-1
O=C(CNC(=O)Cc1ccccc1)NCc1cccs1	-4.5	1	-0.3	1.0%	1	-8
Cc1ccc(CN(C(=O)c2ccco2)C2CCS(=O)(=O)C2)cc1 (configuration not stated)	-3.5	0	0.1	-0.2%	3	7
Cc1cccc(NC(=O)c2cc3ccccc3o2)c1	-2.1	17	1.6	-0.8%[38.3 µM]	5	-14
COc1cc(OC)nc(NC(=O)CSc2nc3ccccc3o2)n1	-0.7	-2	0.9	?	2	-13
COc1ccc(OC)c(NC(=O)Cn2cc(C(=O)c3ccco3)c3ccccc32)c1	2.5	-20	0.6	-1.4%[38.3 µM]	-23	-8
N/C(=N\OC(=O)c1ccc(Cl)cc1)c1cccnc1	?	-1	1.4	-1.1%	0	27
Cc1cc(NC(=O)CCC(=O)N(CCC(C)C)C(C(=O)NC2CCCC2)c2cccnc2)no1 (configuration not stated)	-1.5	3	0.2	-0.1%	6	-2
Cc1cc(NC(=O)COC(=O)c2c(C)noc2C)ccc1Br	-1.0	9	0.7	2.8%	5	-5
CCOC(=O)N1CCN(C(=O)c2cc3c(ccc4ccccc43)oc2=O)CC1	-2.9	5	-0.2	0.0%	-1	4
C=CCN1C(=O)S/C(=C/c2ccsc2)C1=O	-1.0	10	-0.3	6.8%[38.3 µM]	6	-9

Further results
SMILES	D2 agonist	CtBP-E1A inh	TRPML1 agonist	PINK1 expr mod	Six1-Eya2 inh	D2 PAM
Cc1cc(C(=O)NNC(=S)NC2CCCCC2)cs1	-4.7	6	0.6	1.9%	9	-14
CC(C)CN(C(=O)CN1CCN(c2ccc(O)cc2)CC1)c1c(N)n(CC(C)C)c(=O)[nH]c1=O	8.8	10	-0.3	-2.7%	9	22
CCNC(=O)N(C)C[C@H]1N[C@@](CC)(C(=O)OC)[C@H]2C(=O)N(Cc3ccccc3)C(=O)[C@@H]12	-2.2	6	-1.1	-1.0%	1	-7
CCCc1nc2ccccc2[nH]1	0.1	3	-0.4	1.6%	6	12
CC(C)(C)N(Cc1ccccc1)C(=O)COC(=O)Cn1[nH]c(=O)c2ccccc2c1=O	-1.8	4	-0.1	1.3%	-1	-11
CC(C(=O)O)n1nc2ccccc2n1 (configuration not stated)	-0.3	9	-0.1	-0.7%	6	25
CCOc1ccc(CNC(=S)Nc2ccccc2)cc1Cl	4.9	-1	1.1	2.5%	-9	1
C=CC(=O)Nc1ccc(N(C)c2ccnc(Nc3ccc(N4CCN(C)CC4)cc3)n2)cc1	-1.3	-18	-1.0	-1.6%	?	-19
COCCCNCCCOc1ccc(Cl)cc1C(C)(C)C	-4.6	3	0.3	-4.0%	11	-13
N/C(=N\OC(=O)N1CCOCC1)c1ccc(Br)cc1	-2.2	nt	0.1	-0.9%	-7	3
O=C(Nc1ccc2c(c1)OCCO2)C1CCCN1S(=O)(=O)c1ccc(Cl)cc1 (configuration not stated)	0.1	-1	2.9	-4.3%	0	-28
Cc1ccc(NC(=O)COC(=O)c2ccccc2Nc2ccccc2)cc1	0.1	16	2.1	11%	18	-11
CCN(CC)C(=O)c1ncn2c1C(=O)N(C)CC2	-3.4	0	0.4	-0.7%	0	-4
Cc1ccc(C(C(=O)NC2CCCCC2)N(C(=O)c2csnn2)C2CCCC2)o1 (configuration not stated)	0.2	2	1.4	7.1%[38.3 µM]	-2	-2
O=C(CSc1nc2ccccc2c(=O)n1CC1CCCCC1)N1CCOCC1	-4.6	5	0.3	1.8%	8	-11
Cc1nn(C)cc1C(C(=O)NC1CCCCC1)N(C(=O)c1cnccn1)c1ccc(Oc2ccccc2)cc1 (configuration not stated)	-3.9	-10	0.6	0.5%	2	-15
Cc1nn(C(C)C(=O)NCCc2ccccc2)c(=O)c2cc3occc3n12 (configuration not stated)	-0.9	6	-0.4	0.1%	7	-14
COc1ccc([N+](=O)[O-])cc1NC(=O)c1ccc(N(Cc2ccccc2Cl)S(C)(=O)=O)cc1	0.7	-13	0.7	-1.1%	-5	-6
Cc1ccc(-c2nc3ccc(C(=O)O)cc3nc2-c2ccc(C)cc2)cc1	0.1	1	1.8	-6.2%	0	-3
Cc1ccccc1N=Cc1cc2c(cc1O)OC(N)=C(C#N)C2c1ccccc1 (configuration not stated)	1.4	-5	2.4	-1.9%	-4	-15
COc1ccc(NC(=S)/N=C(\N)Nc2nc(C)c3ccc(C)cc3n2)cc1	10	-30	1.0	3.9%	?	4
CC1CCC2(CC1)NC(=O)c1ccccc1O2 (configuration not stated)	-2.6	6	-0.8	2.4%	5	-2
Cc1cccc(C)c1NC(=O)C1(NC(=O)C2CCCN2C(=O)OC(C)(C)C)CCCCC1 (configuration not stated)	-3.1	6	-0.8	8.9%[38.3 µM]	6	-7
CC(=O)c1ccc(N(CC(=O)NCC2CCCO2)C(=O)CCC(=O)Nc2cc(C)on2)cc1 (configuration not stated)	-1.0	-13	-0.5	1.0%	10	-4
C/C(=N\S(=O)(=O)c1ccc(C)cc1)N1CCN(S(=O)(=O)c2ccccc2)C1	-4.8	5	-0.3	1.3%	0	-14
CCOC(=O)c1nn(-c2ccc(Cl)cc2)c2nnc(Cc3ccc(C)cc3)c(=O)n12	3.6	-2	3.5	?	7	-12
COc1ccccc1OCCNC(=O)c1cccc(S(=O)(=O)N2CCN(Cc3ccccc3)CC2)c1	2.3	-4	-0.3	-0.8%	-10	-1
O=C(CSc1nnc(Cc2cc(=O)[nH]c(=O)[nH]2)n1-c1ccc(F)cc1)N1CCCCC1	3.1	3	0.3	4.1%	2	-1
COCCCNC(=O)C1CC(=O)N(Cc2ccc(OC)cc2)C1 (configuration not stated)	0.2	9	1.0	5.7%[38.3 µM]	1	-1
COc1ccc(C(O)P(=O)(OC(C)C)OC(C)C)c(OC)c1 (configuration not stated)	-7.4	4	-0.6	-0.2%	10	-4
C[C@@H]1CN([C@@H](C)CO)S(=O)(=O)c2ccc(Br)cc2O[C@H]1CN(C)Cc1ccncc1	-3.8	-16	0.9	2.1%	8	-16
COCOc1ccc(C=O)c(OCOC)c1	5.2	8	nt	2.2%	9	-22
COc1ccc(NC(=O)COC(=O)c2ccc(-n3nc(C)cc3C)cc2)cc1OC	-0.4	2	0.2	9.0%	-5	1
CCOc1ccc(CN2CCN(CCCc3ccccc3)C(CCO)C2)cc1 (configuration not stated)	-6.5	-12	0.0	-0.2%	0	-7
CCCCNC(=O)CCSc1ccc(C)cc1	-2.7	0	2.0	3.3%	4	-24
O=C(Oc1ccc(Br)cc1C(=S)N1CCOCC1)c1cccc([N+](=O)[O-])c1	-3.9	-19	2.2	-0.5%	?	-1

Compounds as they come, and some 1.3% of all compounds hit somewhere here.
